GLS inhibitor: glutaminase GLS (human) inhibition | GLS enzymatic activity, qHTS titration | 0.21% of 410,000 active | O94925 | Potency, µM (titrated, usually from 45.5 µM), without a hit: at the top dose activity change, negative = inhibition, most hits filed as inhibitors | AID 624170; note: potency is the fitted concentration of half-maximal effect; % is set by controls: 0 for no effect and ±100 for the full control effect
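Human kidney-isoform GLS in 45 mM KH2PO4 pH 8.2, 0.02% Tween-20, with compound, started with 1mM L-Glutamine (added stock). Glutamate oxidase/HRP/Amplex red coupled fluorescence read at start and after 30 min at RT.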
PI4K2A block: blocks human PI4K2A kinase activity | AID 1346378 | 0.13% of 420,000 active | Q9BTU6 | activity change, negative = inhibition, % at 76.9 µM | purified PI4K2A, ADP-Glo luminescence, 1 h; hits give low values; in the data active = activity change below about -50%; inconclusive = mostly about -30% to -49%;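 note: -100% = wells without enzyme as full effect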
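Compounds are screened against recombinant PI4K2A using PI as substrate and ATP, the latter dispensed at 300 microM. Reactions run one hour at ambient temperature before ADP-Glo detection; full inhibition defined by wells lacking enzyme.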
HP1b chromo inh: blocks HP1-beta chromodomain binding to methylated histone tails. 0.56% of 390,000 active. AID 540317. AlphaScreen HP1-beta / biotin-H3K9me3 peptide binding. Potency, µM (doses to about 114 µM), for inactives: top-dose activity change, negative = inhibition, hits mostly inhibitors; note: potency is the fitted concentration of half-maximal effect; nearly all actives have a fitted effect of over 70% in size; inactives centre near 23
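HP1-beta protein (50 nM final) preincubated 30 min at room temperature with biotinylated H3(1-18)K9me3 peptide (50 nM) in PBS pH 7.4, 0.01% Tween-20, then compound added for 30 min. AlphaScreen streptavidin donor/nickel chelate acceptor beads (10 ug/mL final), 30 min dark, luminescence read.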
RGS4 inhibitor: inhibitors of human regulator of G protein signaling 4. P49798. Transcreener GDP fluorescence polarization, RGS4-accelerated GTP hydrolysis. Potency, µM (highest dose often 114 µM), inactives show at the highest dose activity change, negative = inhibition, hits mostly inhibitors. 0.039% of 390,000 active. AID 504845; note: potency is the fitted concentration of half-maximal effect; % is set by controls: 0 for no effect and ±100 for the full control effect; nearly all actives have a fitted effect of over 75% in size; some results filed as inactive show a strong effect at the top dose
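MLSMR compounds (23 nl, pin-transferred) preincubated 10 min at room temperature with a 500nM (2x) first reagent, then RGS4 at 900nM (2x) plus Transcreener GDP mix added; fluorescence polarization (620/688 nm) read before and after 90 min at 30 °C.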
JMJD2A Tudor: inhibitors of human JMJD2A Tudor domain; O75164; AlphaScreen JMJD2A-Tudor / H3K4me3 peptide binding; Potency, µM (series often up to 114 µM), without a hit: at the highest dose activity change, negative = inhibition, actives largely listed as inhibitors; 4.4% of 390,000 active; AID 504339; note: potency is the fitted concentration of half-maximal effect; % is set by controls: 0 for no effect and ±100 for the full control effect; nearly all actives have a fitted effect of over 50% in size
Target sequence (O75164 whole entry, looked up, the tested form may be a part): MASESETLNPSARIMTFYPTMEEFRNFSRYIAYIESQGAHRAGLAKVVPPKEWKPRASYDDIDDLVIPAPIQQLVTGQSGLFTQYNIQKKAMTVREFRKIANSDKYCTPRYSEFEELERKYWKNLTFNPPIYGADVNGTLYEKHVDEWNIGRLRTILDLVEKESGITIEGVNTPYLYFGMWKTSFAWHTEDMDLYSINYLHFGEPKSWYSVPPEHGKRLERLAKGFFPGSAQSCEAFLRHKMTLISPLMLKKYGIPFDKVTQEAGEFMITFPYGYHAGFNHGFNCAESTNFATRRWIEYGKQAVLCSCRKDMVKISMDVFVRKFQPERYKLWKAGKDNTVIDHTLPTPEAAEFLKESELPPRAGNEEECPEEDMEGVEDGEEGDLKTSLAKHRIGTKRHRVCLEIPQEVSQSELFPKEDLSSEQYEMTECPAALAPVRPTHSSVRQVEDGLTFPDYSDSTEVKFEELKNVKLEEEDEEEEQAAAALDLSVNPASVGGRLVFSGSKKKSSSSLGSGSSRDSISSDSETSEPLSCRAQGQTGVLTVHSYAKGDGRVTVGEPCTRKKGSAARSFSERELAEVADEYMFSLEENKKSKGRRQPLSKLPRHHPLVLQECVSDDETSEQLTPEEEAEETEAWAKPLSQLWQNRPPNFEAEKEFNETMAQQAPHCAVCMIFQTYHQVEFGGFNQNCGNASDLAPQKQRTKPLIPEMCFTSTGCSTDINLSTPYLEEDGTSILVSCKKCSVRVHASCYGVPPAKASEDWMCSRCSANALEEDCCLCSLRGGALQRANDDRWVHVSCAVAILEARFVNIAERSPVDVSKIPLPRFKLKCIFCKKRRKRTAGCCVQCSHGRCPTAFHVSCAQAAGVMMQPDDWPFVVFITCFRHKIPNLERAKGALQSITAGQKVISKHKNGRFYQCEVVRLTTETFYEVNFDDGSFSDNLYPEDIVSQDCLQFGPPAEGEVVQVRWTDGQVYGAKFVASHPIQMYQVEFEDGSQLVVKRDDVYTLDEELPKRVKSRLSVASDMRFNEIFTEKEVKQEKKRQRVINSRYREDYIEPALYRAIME
BAZ2B block: BAZ2B (human) inhibition; Q9UIF8; AlphaScreen BAZ2B-H3K14Ac peptide displacement; Potency, µM (highest dose often 114 µM), for inactives: at the highest dose activity change, negative = inhibition, usual class: inhibitors; 4.4% of 360,000 active; AID 504333; note: potency is the fitted concentration of half-maximal effect; % is set by controls: 0 for no effect and ±100 for the full control effect; nearly all actives have a fitted effect of over 60% in size
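AlphaScreen displacement: compounds (up to 110uM) incubated 30 min at room temperature with a preformed 50 nM BAZ2B/50 nM biotinylated H3K14Ac peptide complex in PBS pH 7.4 with Tween-20. Donor and acceptor beads at 10 ug/mL final added, 20 min light-protected before reading.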
G9a block: G9a (human) methyltransferase inhibition. Q96KQ7. AID 504332. G9a H3K9 monomethylation, AlphaScreen, 2 h. Potency, µM (titrated, usually from 102 µM), without a hit: top-dose activity, negative = inhibition, hits mostly inhibitors. 8.8% of 350,000 active; note: potency is the fitted concentration of half-maximal effect; % is set by controls: 0 for no effect and ±100 for the full control effect; nearly all actives have a fitted effect of over 75% in size
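Using a bead-based AlphaScreen, monomethylated H3K9 product from 2 h room-temperature reactions (G9a 20 nM, peptide 500 nM, SAM 20 uM) was detected with 0.5 ug/mL rabbit anti-H3K9me1 antibody.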
ERG-DNA inh: ERG Ets/DNA interaction inhibition; fluorescence polarization, His-ERG Ets domain / labelled DNA; Potency, µM (doses to about 76.9 µM), inactives show top-dose FP activity, negative = inhibition, hits mostly inhibitors; 0.028% of 370,000 active; AID 624246; active = well fitted inhibition curve with a large enough effect in the polarisation, with a control signal flat; inconclusive = small, poorly fitted or top-dose-only effect, or effect the other way, or a change in a side signal; inactive = no such curve, though single readings can be large or run the other way; the % refers to the polarisation;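 note: polarization taken with two DNA probes labelled with fluorescein and Texas red; potency is the fitted concentration of half-maximal effect; % of control where 0% means no effect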
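His-tagged ERG Ets domain (1 uM in the protein solution; 300mM KCl, 50mM Tris-HCl, 1mM EDTA, 1mM DTT, pH 7.5) received compound, then a probe mix of 5 nM fluorescein-DNA and 100nM Texas-615-DNA. Fluorescence polarization was read for both dyes.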
* hit, by the source's call; ? = inconclusive; · = not tested or not shown; [ ] = remark or other dose. Unless noted, calls come from the whole dose curve; as a rule, active = well fitted curve in the direction sought with a large enough effect; inconclusive = small, poorly fitted or top-dose-only effect, or another doubt; inactive = no such curve, though single readings can be large; an effect the other way counts as inactive or inconclusive. This is a subset (hit frequency here may not be typical).

Molecule,GLS inhibitor,PI4K2A block,HP1b chromo inh,RGS4 inhibitor,JMJD2A Tudor,BAZ2B block,G9a block,ERG-DNA inh
CNc1ccc(Oc2nc([N+](=O)[O-])nn2C)cc1,4.6%,0.1,31.0%,-50.3%,-13.3%,-21.0%,50.1µM*,-7.7%
CCOc1ccc(CC(=O)Nc2c3c(nn2C(C)(C)C)CS(=O)(=O)C3)cc1,2.9%,1.2,18.7%,-8.7%,-3.5%,-13.6%,79.4µM*,-6.5%
CCCCn1c(=O)nc2n(-c3ccc(C)cc3)c3ccccc3cc-2c1=O,2.5%,1.5,·,-4.6%,-4.6%,5.2%,17.8%,-5.3%
CC(C)CCNC(=O)C1CCN(S(=O)(=O)c2ccc3c(c2)CC(C)N3C(=O)C2CC2)CC1 (stereo not given),3.6%,3.6,·,-29.3%,4.7%,-1.2%,-0.4%[59 µM],-1.1%
COc1ccccc1C(=O)Nc1ccnn1C1CCN(Cc2cc(C)c(C)cc2C)CC1,2.0%,3.4,6.6%,-9.7%,-27.6%,?,13.3%[0.501 µM],-13.1%
COc1cc(-c2noc(C)c2C(=O)NCCCN2CCCC2=O)cc(OC)c1OC,4.7%,-5.3,21.1%,3.1%,-9.2%,·,·,6.8%
O=C(Nc1cnccn1)Nc1ccc(Cl)cc1Cl,5.5%,3.5,23.2%,13.2%,-11.8%,8.6%,11.5%,-2.2%
Cc1cccc(-c2c(NC(=O)c3ccco3)oc3ccc(Cl)cc3c2=O)c1,-1.6%,-0.5,21.5%,15.1%,-10.3%,-13.9%[57.1 µM],12.7%,-7.8%
O=C(O)c1ccc(Cl)c(NCc2cccnc2)c1,0.6%,1.5,20.0%,1.6%,-18.5%,2.6%,-15.6%,-10.7%
COc1ccc(CNC(=O)C(c2ccc(O)cc2)N(Cc2ccco2)C(=O)c2snc(C(N)=O)c2N)cc1 (stereo not given),8.2%,-0.5,-2.2%,-11.0%,-7.4%,-27.7%,-40.0%,1.9%
CCn1c(C)cc(C(=O)CSc2nnc(-c3ccco3)o2)c1C,24.8%,-2.7,28.4%,17.4%,-14.3%,-3.3%,-10.3%[59 µM],-1.9%
CCOC(=O)c1n[nH]c2ccccc12,5.4%,-2.7,24.5%,6.8%,-12.2%,4.0%,13.4%[59 µM],-10.2%
CCCn1c(=O)c(C)cn2nc(N)nc12,·,-0.1,·,3.3%[56.9 µM],·,·,19.8%[59 µM],·
Cc1ccccc1C(=O)NC(=S)Nc1ccc(Oc2ccc(Cl)cc2)cc1,-3.4%,1.1,28.0%,-9.8%,-7.1%,-10.1%,30.8%[0.501 µM],5.9%
CCOc1cc(N2CCOCC2)c(OCC)cc1NC(=O)c1nn(CC)c(=O)c2ccccc12,11.3%,-5.4,-39.9%,-0.7%,50.1µM*,50.1µM*,?,10.3%
CCNC(=S)NNc1nncc2ccccc12,?,-1.9,3.0%,-17.7%,?,-23.7%,?,-4.3%
O=C(Nc1cccc(F)c1)c1ccc2c(c1)OCCO2,10.9%,6.0,4.2%,16.7%,-1.4%,-2.0%,10.7%,-7.1%
c1ccc(N2CC3COc4ccccc4C3=N2)cc1 (stereo not given),11.9%,6.9,·,-12.3%,150.0%[activator],·,·,-0.9%
COc1cccc(C(=O)NC(=S)Nc2ccc(Cl)c(C(=O)O)c2)c1,13.5%,-3.9,-14.2%,-15.6%,-19.7%,?,?,2.8%
CC(=O)Oc1cc2c(cc1Cl)C1(CC(c3ccccc3Cl)O2)CC(C)(C)NC(=S)N1 (stereo not given),?,-1.2,17.6%,-39.4%,?,-34.0%,?,6.4%
COc1ccc(C(=O)COC(=O)c2ccc3c(c2)OCCO3)c(OC)c1,-14.3%,-3.0,35.4%,-19.0%,-25.5%,-4.8%,4.7%[0.501 µM],18.9%
N#CCOc1ccccc1P(=O)(c1ccccc1)c1ccccc1,2.4%,3.3,·,12.1%,-6.7%,-1.0%,8.9%,-2.2%
O=c1cc(-c2ccccc2)oc2cc(O)c(O)c(O)c12,13.4%,-3.5,-10.4%,-10.6%,?,·,·,16.4%
CCc1cccc(NC(=O)CCNS(=O)(=O)c2cc(Br)cnc2N)c1,4.4%,-2.8,·,-16.0%[56.9 µM],-20.5%,-12.8%,-10.6%,-3.5%

Single records, as listed above. Screens in order: GLS inhibitor, PI4K2A block, HP1b chromo inh, RGS4 inhibitor, JMJD2A Tudor, BAZ2B block, G9a block, ERG-DNA inh
Record of `COc1cccc(C(=O)NC(=S)Nc2ccc(Cl)c(C(=O)O)c2)c1` → 13.5%, -3.9, -14.2%, -15.6%, -19.7%, ?, ?, 2.8%
Record of `O=c1cc(-c2ccccc2)oc2cc(O)c(O)c(O)c12` → 13.4%, -3.5, -10.4%, -10.6%, ?, ·, ·, 16.4%

In another format: results already given
CCOC(=O)c1n[nH]c2ccccc12
  GLS inhibitor = 5.4%; PI4K2A block = -2.7; HP1b chromo inh = 24.5%; RGS4 inhibitor = 6.8%; JMJD2A Tudor = -12.2%; BAZ2B block = 4.0%; G9a block = 13.4%[59 µM]; ERG-DNA inh = -10.2%
CCCn1c(=O)c(C)cn2nc(N)nc12
  GLS inhibitor = ·; PI4K2A block = -0.1; HP1b chromo inh = ·; RGS4 inhibitor = 3.3%[56.9 µM]; JMJD2A Tudor = ·; BAZ2B block = ·; G9a block = 19.8%[59 µM]; ERG-DNA inh = ·

Structures listed so far shown as hits in BAZ2B block.
Molecule,GLS inhibitor,PI4K2A block,HP1b chromo inh,RGS4 inhibitor,JMJD2A Tudor,BAZ2B block,G9a block,ERG-DNA inh
CCOc1cc(N2CCOCC2)c(OCC)cc1NC(=O)c1nn(CC)c(=O)c2ccccc12,11.3%,-5.4,-39.9%,-0.7%,50.1µM*,50.1µM*,?,10.3%

High-throughput results (PubChem BioAssay)
